# Yeast UUG start – modulators of yeast start codon fidelity, primary screen, whole organism, S. cerevisiae, single point, plate reader; AID 602363, 2012; activity score, % at 18.7 µM; S. cerevisiae UUG-firefly luciferase reporter, luminescence/redox ratio; 350,000 compounds, 0.13% hits;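 active = replicate mean at a twofold rise or more, about +100% in these data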;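 note: firefly luciferase made from a UUG start codon reports start codon fidelity; reporter light over untreated wells divided by growth signal over untreated wells; some hits fall short of that in this replicate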
# * hit, by the source's call. Not all compounds are listed; rates above refer to the full screens.
mol,Yeast UUG start
Cn1cnc(S(=O)(=O)N2CC[C@@H]3[C@H](CO)Nc4ccc(-c5ccccc5)cc4[C@@H]32)c1,0.5
COCCNC(=O)C[C@H]1CC[C@@H]2[C@@H](COc3ccc(NC(=O)C4CCOCC4)cc3C(=O)N2C)O1,29.9
COc1ccc(NC(=O)N(C)C[C@H]2Oc3ccc(NC(=O)CCN4CCOCC4)cc3CC(=O)N([C@H](C)CO)C[C@H]2C)cc1,3.7
COc1ccccc1C(=O)N1C[C@H]2[C@@H](c3ccccc31)[C@@H](CO)N2CC1CCCC1,-2.8
CO[C@@H]1CN(C)C(=O)c2cc(NC(=O)C3CCC3)ccc2OC[C@@H](C)N(Cc2ccc(F)cc2)C[C@@H]1C,0.3
C[C@@H]1CN([C@H](C)CO)C(=O)Cc2cc(NC(=O)CCCCCC(=O)Nc3ccccc3N)ccc2O[C@H]1CN(C)C,2.4
O=S(=O)(c1ccccc1F)N1CCCCN2[C@H](CO)[C@@H](c3ccc(-c4ccncc4)cc3)[C@H]2C1,7.0
CO[C@H]1CN(C)C(=O)c2cc(NC(=O)c3ccc(-c4ccccc4)cc3)ccc2OC[C@H](C)NC[C@@H]1C,-5.4
Cc1ccc(S(=O)(=O)N(C)C[C@H]2Oc3ccc(NC(=O)CCCN(C)C)cc3CC(=O)N([C@@H](C)CO)C[C@@H]2C)cc1,12.4
Cc1cccc(S(=O)(=O)N2CCCCN3[C@H](CO)[C@H](c4ccc(C#CC5CC5)cc4)[C@@H]3C2)c1,10.5
Cc1ccc(S(=O)(=O)N(C)C[C@H]2OCc3ccccc3-c3ccccc3C(=O)N([C@@H](C)CO)C[C@@H]2C)cc1,7.8
C[C@H](CO)N1C[C@H](C)[C@H](CN(C)Cc2ccncc2)Oc2ccc(NC(=O)Cc3ccccc3)cc2CC1=O,3.5
C[C@@H]1CN([C@@H](C)CO)C(=O)Cc2cc(NS(=O)(=O)c3ccccc3)ccc2O[C@@H]1CN(C)CC1CC1,9.1
O=C(Nc1ccc2c(c1)[C@H]1C[C@H](CC(=O)N3CCOCC3)O[C@@H](CO)[C@H]1O2)NC1CCCC1,13.1
CC(C)NC(=O)Nc1cccc2c1O[C@H](CN(C)S(=O)(=O)c1ccc(Cl)cc1)[C@H](C)CN([C@@H](C)CO)C2=O,2.3

# (listing goes on)
mol,Yeast UUG start
CO[C@@H]1CN(C)C(=O)c2cc(NS(C)(=O)=O)ccc2OC[C@@H](C)N(CCC(F)(F)F)C[C@@H]1C,-11.1
O=C(C[C@H]1CC[C@H]2[C@@H](COC[C@@H](O)CN2Cc2ccccc2F)O1)N1CCc2ccccc2C1,13.7
O=C(c1cccc(F)c1)N1C[C@H]2[C@@H](c3ccccc31)[C@H](CO)N2C(=O)C1CCOCC1,-1.0
C[C@H]1CN([C@@H](C)CO)C(=O)c2cccc(NS(C)(=O)=O)c2O[C@H]1CN(C)C(=O)NC1CCCCC1,-10.3
COc1ccc(C#Cc2ccc3c(c2)[C@@H]2[C@@H](CCN2C(=O)C2CC2)[C@@H](CO)N3)cc1,-7.1
CN(C)CCCNC(=O)C[C@@H]1CC[C@H]2[C@@H](COC[C@H](O)CN2Cc2cccc(Cl)c2)O1,2.8
C[C@H](CO)N1C[C@H](C)[C@H](CN(C)C)Oc2ccc(NC(=O)Cn3cnnn3)cc2C1=O,3.7
CN1CCCCN2[C@H](CO)[C@H](c3ccc(C#Cc4ccccc4F)cc3)[C@H]2C1,-6.4
COc1ccc(CN(C)C[C@@H]2Oc3c(NC(=O)Nc4cccc5ccccc45)cccc3C(=O)N([C@H](C)CO)C[C@@H]2C)cc1,-0.7
O=C(C[C@@H]1CC[C@H]2[C@@H](COC[C@H](O)CN2C(=O)c2ccncc2)O1)NC1Cc2ccccc2C1,8.2
C[C@@H]1CN([C@@H](C)CO)C(=O)Cc2cc(NC(=O)CCN3CCOCC3)ccc2O[C@H]1CN(C)C,2.4
C[C@H]1CN([C@@H](C)CO)C(=O)c2c(c3ccccc3n2C)-c2ccccc2CO[C@H]1CN(C)S(=O)(=O)c1ccccc1,7.8
Cc1cccc(S(=O)(=O)N2C[C@@H]3[C@H](c4ccccc42)[C@H](CO)N3Cc2cccnc2)c1,6.0
C[C@H]1CN([C@@H](C)CO)C(=O)Cc2cc(NS(=O)(=O)c3ccccc3)ccc2O[C@H]1CN(C)Cc1ccc2c(c1)OCO2,-11.1
O=C(Nc1cc(F)ccc1F)N1C[C@H]2[C@@H](c3ccccc31)[C@@H](CO)N2CC1CCCC1,-17.5

# Going on with the list:
mol,Yeast UUG start
O=C(NC1CCCC1)N1CCCCN2[C@@H](CO)[C@H](c3ccc(-c4cncnc4)cc3)[C@@H]2C1,1.1
COc1cccc(S(=O)(=O)Nc2ccc3c(c2)C(=O)N(C)C[C@@H](OC)[C@H](C)CN(C(=O)Cc2cccnc2)[C@@H](C)CO3)c1,-4.9
CN(C)CCCNC(=O)C[C@@H]1CC[C@H]2[C@H](COc3ccc(NC(=O)C4CCC4)cc3C(=O)N2C)O1,-2.9
C[C@H]1CN([C@@H](C)CO)C(=O)c2cc(NS(=O)(=O)c3cccs3)ccc2O[C@H]1CN(C)S(=O)(=O)c1ccc(Cl)cc1,2.1
C[C@@H]1CN([C@@H](C)CO)C(=O)c2cccc(NC(=O)c3ccncc3)c2O[C@H]1CN(C)S(=O)(=O)c1ccc(F)cc1,-3.2
O=C(c1ccc(F)cc1)N1C[C@H]2[C@@H](c3ccccc31)[C@@H](CO)N2Cc1ccc2c(c1)OCO2,4.5
C/C=C/c1ccc([C@H]2[C@@H](CO)N(C(=O)NCCC)[C@H]2CNC(=O)C2CC2)cc1,-4.0
O=C(C[C@@H]1CC[C@H]2[C@@H](COC[C@H](O)CN2S(=O)(=O)c2ccccc2F)O1)NCc1ccccc1Cl,14.7
CCC(=O)Nc1ccc2c(c1)C(=O)N(C)C[C@@H](OC)[C@H](C)CN[C@@H](C)CO2,19.5
C[C@H](CO)N1C[C@H](C)[C@H](CN(C)Cc2ccc(C(=O)O)cc2)Oc2ccc(NC(=O)Nc3cccc4ccccc34)cc2CC1=O,17.7
CC(=O)N1[C@@H]2c3ccc(C4=CCCCC4)c(=O)n3C[C@H]1[C@H](CO)[C@H]2C(=O)NC1CCCC1,14.9
CCCN1C[C@@H](C)[C@H](OC)CN(C)C(=O)c2ccc(NC(=O)C3CC3)cc2OC[C@@H]1C,15.6
COc1cccc(S(=O)(=O)N2CCCCN3[C@H](CO)[C@H](c4ccc(-c5cncnc5)cc4)[C@@H]3C2)c1,-6.1
O=C(NC[C@@H]1[C@H](c2ccccc2)[C@@H](CO)N1C(=O)Cc1cccnc1)C1CCC1,6.5
C[C@@H]1CN([C@H](C)CO)C(=O)c2cccc(NC(=O)c3ccc(-c4nccs4)cc3)c2O[C@@H]1CN(C)Cc1ccc(C(F)(F)F)cc1,-0.1

# Other records follow:
mol,Yeast UUG start
COc1ccccc1S(=O)(=O)N1CC[C@@H]2[C@H]1c1cc(Br)ccc1N[C@@H]2CO,-19.8
C/C=C/c1ccc([C@H]2[C@@H](CO)N3CCCCN(S(=O)(=O)c4cccc(C)c4)C[C@@H]23)cc1,9.6
O=C(Nc1cccc(F)c1)N1CCCCN2[C@H](C1)[C@@H](c1ccc(C#Cc3ccccc3)cc1)[C@@H]2CO,-7.9
CO[C@H]1CN(C)C(=O)c2cc(NC(=O)C3CCC3)ccc2OC[C@@H](C)N(Cc2ccc(F)cc2)C[C@@H]1C,6.0
C[C@H]1CN([C@@H](C)CO)C(=O)Cc2cc(NC(=O)NC3CCCCC3)ccc2O[C@H]1CN(C)S(=O)(=O)c1ccccc1,-14.5
CCCNC(=O)C[C@@H]1CC[C@@H]2[C@H](COC[C@H](O)CN2Cc2ccc(Cl)c(Cl)c2)O1,3.0
Cc1noc(C)c1NC(=O)Nc1cccc2c1O[C@@H](CN(C)C(=O)NC1CCCCC1)[C@@H](C)CN([C@H](C)CO)C2=O,-9.7
COCC(=O)Nc1ccc2c(c1)C(=O)N(C)C[C@@H](OC)[C@@H](C)CN(C(=O)NC(C)C)[C@H](C)CO2,-9.6
CS(=O)(=O)N1CCCCN2[C@H](CO)[C@H](c3ccc(-c4cccc(C#N)c4)cc3)[C@@H]2C1,-11.8
C[C@H]1CN([C@@H](C)CO)C(=O)Cc2cc(NC(=O)Cc3ccccc3)ccc2O[C@@H]1CN(C)S(=O)(=O)c1ccc(Cl)cc1,1.2
O=C(c1ccncc1)N1CCCCN2[C@@H](CO)[C@H](c3ccc(C#Cc4ccccn4)cc3)[C@@H]2C1,2.1
COc1ccc(CN(C)C[C@H]2Oc3ccc(NC(=O)Nc4c(C)noc4C)cc3CC(=O)N([C@@H](C)CO)C[C@H]2C)cc1,-2.2
O=C(NCC1CC1)[C@H]1[C@H](CO)[C@H]2Cn3c(ccc(-c4cccnc4)c3=O)[C@@H]1N2C(=O)C1CCCCC1,-6.8
COCC(=O)N1C[C@H](C)[C@H](OC)CN(C)C(=O)c2ccc(NC(=O)NC(C)C)cc2OC[C@H]1C,1.2
CC(C)NC(=O)N(C)C[C@H]1Oc2c(NS(=O)(=O)c3ccccc3)cccc2C(=O)N([C@H](C)CO)C[C@H]1C,-0.1

# Quoted at random: three entries already listed, in no set order.
mol,Yeast UUG start
O=C(C[C@@H]1CC[C@H]2[C@@H](COC[C@H](O)CN2S(=O)(=O)c2ccccc2F)O1)NCc1ccccc1Cl,14.7
Cc1cccc(S(=O)(=O)N2C[C@@H]3[C@H](c4ccccc42)[C@H](CO)N3Cc2cccnc2)c1,6.0
CN(C)CCCNC(=O)C[C@@H]1CC[C@H]2[C@H](COc3ccc(NC(=O)C4CCC4)cc3C(=O)N2C)O1,-2.9

# Next entries.
mol,Yeast UUG start
CO[C@@H]1CN(C)C(=O)c2cc(NC(=O)c3cnccn3)ccc2OC[C@H](C)N(CCc2ccccc2)C[C@H]1C,-10.9
CNC[C@H]1Oc2c(NC(=O)c3cc(C)nn3C)cccc2C(=O)N([C@H](C)CO)C[C@H]1C,-5.6
C[C@H]1CN([C@@H](C)CO)C(=O)Cc2cc(NC(=O)c3ccncc3)ccc2O[C@H]1CN(C)S(=O)(=O)c1ccc(F)cc1,-19.4
Cc1ccc(S(=O)(=O)N(C)C[C@@H]2OCc3ccccc3-c3ccccc3C(=O)N([C@H](C)CO)C[C@@H]2C)cc1,4.9
Cc1ccc(S(=O)(=O)Nc2ccc3c(c2)C(=O)N([C@@H](C)CO)C[C@H](C)[C@@H](CN(C)C(=O)Nc2ccccc2)O3)cc1,-3.3
CO[C@@H]1CN(C)C(=O)c2ccc(NC(C)=O)cc2OC[C@@H](C)N(C(=O)c2cccnc2)C[C@H]1C,0.9
CCC(=O)N1C[C@H](C)[C@H](OC)CN(C)C(=O)c2ccc(NC(=O)Nc3cccc(F)c3)cc2OC[C@@H]1C,-11.2
CCCNC(=O)[C@H]1[C@H](CO)[C@H]2Cn3c(cccc3=O)[C@H]2N1C(=O)C1CCCC1,5.0
CC(=O)N1C[C@@H]2[C@H](c3ccccc31)[C@H](CO)N2Cc1ccc(Cl)cc1,-2.9
CC1C=NC(S(=O)(=O)N2CC[C@@H]3[C@H]2c2cc(-c4ccccc4)ccc2N(C)[C@H]3CO)=N1 (stereo partly specified),9.3
COc1ccccc1-c1ccc([C@@H]2[C@H](CO)N3CCCCN(C(=O)CN4CCOCC4)C[C@@H]23)cc1,0.8
Cc1ccc(S(=O)(=O)N(C)C[C@@H]2OCc3ccccc3-c3ccccc3C(=O)N([C@H](C)CO)C[C@H]2C)cc1,-3.2
CCCC(=O)Nc1ccc2c(c1)C(=O)N(C)C[C@@H](OC)[C@H](C)CN(Cc1ccccn1)[C@H](C)CO2,-20.6
O=C(C[C@H]1CC[C@H]2[C@@H](COC[C@H](O)CN2C(=O)Nc2ccccc2)O1)NCCc1ccncc1,-8.3
C[C@@H]1CN([C@H](C)CO)C(=O)c2cc(NC(=O)Cc3ccccc3)ccc2O[C@@H]1CN(C)C,-4.7

# 3 entries from above, sorted by count of non-hydrogen atoms, ascending:
mol,Yeast UUG start
CCCNC(=O)[C@H]1[C@H](CO)[C@H]2Cn3c(cccc3=O)[C@H]2N1C(=O)C1CCCC1,5.0
O=C(C[C@H]1CC[C@H]2[C@@H](COC[C@H](O)CN2C(=O)Nc2ccccc2)O1)NCCc1ccncc1,-8.3
Cc1ccc(S(=O)(=O)N(C)C[C@@H]2OCc3ccccc3-c3ccccc3C(=O)N([C@H](C)CO)C[C@@H]2C)cc1,4.9

# The list continues.
mol,Yeast UUG start
CO[C@@H]1CN(C)C(=O)c2ccc(NC(=O)C3CCCC3)cc2OC[C@@H](C)N(CC2CC2)C[C@@H]1C,25.2
O=C(Nc1ccc(F)cc1)N1CCCCN2[C@H](C1)[C@H](c1ccc(-c3ccccc3F)cc1)[C@@H]2CO,0.1
C[C@@H]1CN([C@@H](C)CO)C(=O)c2cc(NC(=O)C3CC3)ccc2O[C@H]1CN(C)S(=O)(=O)c1cn(C)cn1,-0.8
OC[C@@H]1[C@H](c2ccc(-c3ccccc3)cc2)[C@@H]2CN(CCC(F)(F)F)CCCCN12,2.2
C[C@@H]1CN([C@@H](C)CO)C(=O)CCCn2cc(nn2)CO[C@H]1CN(C)CC1CCCC1,11.9
O=C(Nc1cc(F)ccc1F)N1CCCCN2[C@H](CO)[C@@H](c3ccc(-c4cncnc4)cc3)[C@@H]2C1,0.5
CCCC(=O)Nc1ccc2c(c1)OC[C@H](C)N(Cc1ccc(-c3ccccn3)cc1)C[C@@H](C)[C@@H](OC)CN(C)C2=O,19.6
C[C@H]1CN([C@@H](C)CO)C(=O)Cc2cc(NC(=O)NC3CCCCC3)ccc2O[C@H]1CN(C)C,-7.8
C[C@@H]1CN([C@H](C)CO)C(=O)Cc2cc(NC(=O)NC3CCCCC3)ccc2O[C@H]1CN(C)Cc1ccc2c(c1)OCO2,21.3
C[C@H](CO)N1C[C@H](C)[C@H](CN(C)S(C)(=O)=O)Oc2ccc(NC(=O)Nc3ccc(F)cc3)cc2CC1=O,-4.4
C[C@H]1CN([C@@H](C)CO)C(=O)c2cc(NC(=O)Nc3cccc4ccccc34)ccc2O[C@@H]1CN(C)S(=O)(=O)c1cn(C)cn1,4.6

# From PubChem BioAssay
